Screens (PubChem BioAssay)
RecA splice inh – Mtb RecA intein splicing inhibition; cell-free RecA intein splicing, fluorescence; actives 0.75% (n = 290,000); inhibition, %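 (about 9 µM by stock and volumes)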; P9WHJ3; in the data active = inhibition above about 30%; inconclusive = no clear call, values can overlap the other calls;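 note: 0% = vehicle wells and 100% = reference inhibitor control wells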
Target sequence (P9WHJ3 whole entry, looked up, canonical isoform): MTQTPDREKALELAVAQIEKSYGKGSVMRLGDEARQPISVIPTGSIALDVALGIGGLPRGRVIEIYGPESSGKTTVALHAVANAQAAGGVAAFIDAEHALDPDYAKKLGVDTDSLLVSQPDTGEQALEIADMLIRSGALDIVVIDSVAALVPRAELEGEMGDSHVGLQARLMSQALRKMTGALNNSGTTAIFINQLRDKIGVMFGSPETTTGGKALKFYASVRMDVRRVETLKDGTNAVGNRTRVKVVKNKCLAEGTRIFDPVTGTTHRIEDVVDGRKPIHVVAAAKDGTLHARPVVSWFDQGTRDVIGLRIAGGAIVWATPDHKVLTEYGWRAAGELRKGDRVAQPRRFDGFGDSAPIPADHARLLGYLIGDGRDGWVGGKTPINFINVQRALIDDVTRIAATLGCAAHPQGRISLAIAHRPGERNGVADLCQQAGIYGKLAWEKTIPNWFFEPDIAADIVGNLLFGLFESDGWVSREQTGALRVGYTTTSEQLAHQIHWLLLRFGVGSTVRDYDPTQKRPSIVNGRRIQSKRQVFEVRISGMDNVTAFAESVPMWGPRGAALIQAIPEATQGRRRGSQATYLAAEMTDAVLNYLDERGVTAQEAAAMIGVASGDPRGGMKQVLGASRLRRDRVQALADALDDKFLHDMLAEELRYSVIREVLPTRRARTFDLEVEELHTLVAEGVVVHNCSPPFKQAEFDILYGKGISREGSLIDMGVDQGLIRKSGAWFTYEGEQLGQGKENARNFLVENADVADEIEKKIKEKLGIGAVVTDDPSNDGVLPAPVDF
Arbovirus inh – blocks arbovirus infection | actives 0.37% (n = 200,000) | AID 1251 | arbovirus infection cell-based antiviral screen | inhibition, % at 10 µM;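 active = inhibition from about 30%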;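 note: bluetongue infection of BSR cells; cell survival read as ATP light after 72 h; 0% = infected wells without compound and 100% = uninfected wells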
Mtb growth – M. tuberculosis H37Rv growth inhibitors, H37Rv strain (AID 1626). M. tuberculosis H37Rv growth inhibition; higher % means a stronger effect. inhibition, % at 10 µM, or IC50 in µM where a hit was titrated. actives 0.95% (n = 220,000);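 active = confirmed in a dose series; inconclusive = inhibition above 80% but not taken into the dose series; inactive = below 80% or under 30% at every dose of the series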;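 note: bacteria incubated seven days before Alamar blue readout; 0% = bacteria only wells and 100% = bacteria with antibiotic wells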
YopH inh – blocks Yersinia enterocolitica YopH tyrosine phosphatase | fluorescence Ex485/Em525 | inhibition, %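 (about 10 µM by stock and volumes)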 | actives 0.16% (n = 140,000);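 active = inhibition of 50% or more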;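 note: controls were vehicle for no effect and minimum signal wells for full effect; inactives centre near -20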
Mtb betalactam – beta-lactam sensitization of Mtb H37Rv | M. tuberculosis H37Rv growth with meropenem, percent inhibition; hits of this screen are not shown here | inhibition, % at 25 µM | actives 0.27% (n = 330,000);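 active = about 74% or more and at least 40 points above the plate without the antibiotic, then above 30% in a dose series; inconclusive = first-round hits that could not be retested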;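 note: growth measured after seven days incubation then overnight dye step; 0% = bacteria only wells and 100% = bacteria with antibiotic; twin plates without the antibiotic show which effects depend on it; some results filed as inactive read as strong as hits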
Arbovirus inh repeat – further read-out of Arbovirus inh, marked with its call; inhibition, %; measured here: 10K subset replicate screen; many hits read low in the repeat;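 first of two repeat runs on a subset; 0% = infected and 100% = uninfected wells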
* marks the source's active call; other numbers are inactive results; ? = inconclusive; . = not tested or not shown. A portion of the library, so the mix of outcomes need not match the whole.

SMILES | RecA splice inh | Arbovirus inh | Mtb growth | YopH inh | Mtb betalactam | others
CCn1c(C)c(C)c2cc(C(=O)NCCCN3CCCCC3)ccc21 | 1.3 | . | . | . | 8.0
CC(C)c1ccc(C(O)Cc2nc3ccccc3n2C)cc1 (stereo not given) | -0.1 | . | 4.5% | . | 26.9
CCc1ccc(N(C(=O)c2ccco2)C(C(=O)NC2CCCC2)c2ccco2)cc1 (stereo not given) | 1.6 | -3.2 | -2.1% | 29.0 | -2.3
Cc1ccc(C(=O)N2CCC(C(=O)Nc3cccc([N+](=O)[O-])c3)CC2)cc1 | 1.4 | . | . | . | ?
O=C(Cc1sc(Nc2ccccc2)nc1-c1ccccc1)NCc1ccccc1 | -0.1 | -13.4 | 7.5% | -27.3 | -3.5
O=[N+]([O-])c1cc([As](=O)(O)c2ccc(O)c([N+](=O)[O-])c2)ccc1O | 2.1 | . | -3.6% | . | 1.2
Cc1cc2cc3c(cc2nc1SCC(=O)Nc1c(C)cccc1C)CCC3 | 2.9 | -14.9 | -0.5% | -13.9 | 4.9
COc1ccccc1CNC(=O)CCC(=O)N1CCOc2ccc(Cl)cc21 | -1.3 | . | . | . | -2.5
CCc1ccc(-n2c(O)cnc2Nc2nc(C)cc(C)n2)cc1 | -1.8 | 2.7 | 4.2% | -48.5 | 3.9 | Arbovirus inh repeat=3.9
COc1cc(CNCCc2ccc(S(N)(=O)=O)cc2)ccc1OCC(=O)NC1CCCCC1 | -1.2 | -11.9 | 2.2% | -37.5 | -4.4
CCOc1ccccc1NC(=O)CCCNC(=O)Cn1cnc2sc(C)c(C)c2c1=O | 1.4 | . | . | . | 2.9
Cc1ccc(N2C(=O)c3ccc(C(=O)N4CCN(c5ccc(C)c(C)c5)CC4)cc3C2=O)cc1 | -1.3 | 14.9 | -0.8% | . | -1.1
CCOC(=O)N1CCN(C(=O)Cc2ccsc2)CC1 | 1.0 | 3.5 | -5.4% | -18.2 | -3.2
CS(=O)(=O)N(CC(=O)Nc1ccccc1)Cc1ccc(Cl)cc1 | -0.3 | 6.0 | 3.9% | -23.4 | 35.9
CC(C)Oc1ccc(CNS(=O)(=O)c2csc(C(N)=O)c2)cc1 | -0.5 | . | . | . | -0.5
COc1cc(NC(=O)c2ccccc2)c(OC)cc1NC(=O)CN1CCOCC1 | 4.1 | -0.5 | 12.9% | -15.9 | .
O=C(CNC(=S)N(Cc1ccccc1Cl)C1CCCC1)NCCN1CCOCC1 | -1.3 | 8.5 | 3.5% | . | -2.0
COCCCn1c(SCC(=O)N2CC(=O)Nc3ccccc32)nnc1-c1ccoc1C | -1.6 | -4.1 | 1.2% | -45.6 | 2.0
O=C(COc1ccc(S(=O)(=O)N2CCCC2)cc1Cl)NC1CC1 | -2.1 | 7.0 | 0.0% | -10.3 | -6.7
O=c1c2c3c(sc2nc2n1CCCC2)CCCCC3 | 0.6 | 15.9 | 16.1% | -27.1 | 18.3
Cc1cc(=O)n2nc(N3CCC(C(=O)NC4CCCc5ccccc54)CC3)sc2n1 (stereo not given) | . | -2.6 | -3.7% | -21.3 | -9.4
C[C@H](NC(=O)c1nc[nH]c1C(=O)N1CCc2ccccc2C1)C(=O)OC(C)(C)C | 3.2 | . | 2.0% | . | 0.3
COCCOC(=O)c1c(N)n(Cc2ccco2)c2nc3ccccc3nc12 | -135.1 | . | 5.8% | -42.5 | 38.1
Nc1ccc(Sc2cnn(-c3ccccc3)c(=O)c2Cl)cc1 | 4.0 | 8.8 | 5.5% | -23.3 | 39.8
O=C(CSc1nc2c(cnn2-c2ccccc2)c(=O)[nH]1)N1N=C(c2cccs2)CC1c1ccc(F)cc1 (stereo not given) | -1.9 | -4.4 | . | -29.5 | 9.3
(listing goes on)
SMILES | RecA splice inh | Arbovirus inh | Mtb growth | YopH inh | Mtb betalactam | others
Cc1cccn2c(=O)c3cc(C(=O)NC4CCCCC4)c(=N)n(Cc4ccccc4)c3nc12 | -465.7 | . | . | . | 98.9
CC1CCCN(Cc2ccc(OCc3ccccc3)cc2)C1 (stereo not given) | -0.1 | . | . | . | 4.4
COc1ccc([C@@H]2Sc3ccccc3NC(=O)[C@@H]2O)cc1 | 2.4 | . | . | . | -4.7
Nc1ccc2nc(C(F)(F)F)[nH]c2c1 | 3.5 | -3.0 | -0.7% | . | -2.3
CN(CC(=O)Nc1ccccc1N1CCOCC1)CC(=O)Nc1ccc(F)c(F)c1F | -0.1 | 11.3 | 5.8% | . | 3.0
CN(C)S(=O)(=O)c1cccc(NC(=O)COC(=O)CNC(=O)c2cccc([N+](=O)[O-])c2)c1 | 0.2 | . | -2.3% | . | -4.7
Cc1cccc(NC(=O)c2ccccc2O)c1C | -2.0 | 6.7 | 9.7% | -2.0 | 48.7 | Arbovirus inh repeat=1.5
CCOC(=O)c1ccc2c(c1)n(Cc1ccccc1)c(C)[n+]2CC | -0.5 | 3.0 | -1.0% | . | -2.9
Cc1[nH]n(-c2ccccc2)c(=O)c1C=Nc1ccc(S(=O)(=O)N=C(N)N)cc1 | 0.3 | . | 0.5% | . | -4.7
CCOc1ccc(Nc2oc(-c3cccc(Cl)c3)nc2C#N)cc1 | 1.8 | -4.0 | 2.2% | -5.7 | 71.6
O=C(Nc1ccc(Cl)c([N+](=O)[O-])c1)c1ccc(NCCCN2CCOCC2)c([N+](=O)[O-])c1 | -1.5 | -40.8 | -3.3% | -31.0 | 99.5
O=C(c1cc(C(=O)NCc2ccccc2)c(=O)n(Cc2ccccc2)c1)c1cc(Cl)ccc1O | 1.5 | -0.3 | 30.6% | -39.5 | 3.5
Cc1cc2c(=O)n(C)c(SCC(=O)NC3CCCC3)nc2s1 | 1.9 | . | . | . | -6.3
O=C(CSc1cccc2cccnc12)N/N=C/c1cccnc1 | -4.0 | -14.9 | ? | . | 4.4
CCC(=O)Nc1cccc(C(=O)OCc2cccc([N+](=O)[O-])c2)c1 | 1.6 | -0.9 | 22.7% | . | .
Cc1ccc2c(c1)N(CC(=O)NCC1CCCO1)C(=O)CO2 (stereo not given) | -0.5 | . | . | . | -0.4
Cc1cccc(Nc2ccc([N+](=O)[O-])cn2)c1 | -0.2 | . | . | . | -2.0
CN1CCN(C2Cc3cc(Cl)ccc3Sc3cc(F)ccc32)CC1 (stereo not given) | 6.2 | . | . | . | 99.8
O=[N+]([O-])c1ccc(/C=N/n2cnc3ccccc32)s1 | 1.6 | -36.5 | ? | -9.9 | 99.8
CCN(CC)C(=O)Cn1nc(-c2ccccc2O)nc1SCC(=O)Nc1ccc(OC)cc1 | 8.7 | 6.0 | 3.4% | -0.5 | -7.7
NC(=O)CSc1nnc(-c2ccc(S(=O)(=O)N3CCCC3)cc2)n1CC1CCCO1 (stereo not given) | -1.2 | 4.5 | -2.1% | -37.1 | -16.1
CN(C)CCCN(C(=O)c1cc2ccccc2oc1=O)c1nc2ccc(F)cc2s1 | -0.1 | 4.6 | -5.7% | -30.2 | 1.7
COc1ccc(S(=O)(=O)NCc2ccccn2)cc1 | -2.0 | -2.1 | -1.7% | -5.7 | -9.9
CC(OC(=O)c1ccccc1O)C(=O)Nc1cccc(Cl)c1 (stereo not given) | -0.2 | 5.1 | 3.0% | . | -8.2
O=C(CNC1CCCC1)Nc1ccc(N2CCCCCC2)cc1 | -4.6 | -11.9 | 8.04µM* | . | 99.8

Six compounds drawn at random from those above, as already listed:
SMILES | RecA splice inh | Arbovirus inh | Mtb growth | YopH inh | Mtb betalactam | others
COc1ccc([C@@H]2Sc3ccccc3NC(=O)[C@@H]2O)cc1 | 2.4 | . | . | . | -4.7
CCN(CC)C(=O)Cn1nc(-c2ccccc2O)nc1SCC(=O)Nc1ccc(OC)cc1 | 8.7 | 6.0 | 3.4% | -0.5 | -7.7
Cc1cccc(Nc2ccc([N+](=O)[O-])cn2)c1 | -0.2 | . | . | . | -2.0
Cc1cccn2c(=O)c3cc(C(=O)NC4CCCCC4)c(=N)n(Cc4ccccc4)c3nc12 | -465.7 | . | . | . | 98.9
O=C(c1cc(C(=O)NCc2ccccc2)c(=O)n(Cc2ccccc2)c1)c1cc(Cl)ccc1O | 1.5 | -0.3 | 30.6% | -39.5 | 3.5
Cc1ccc2c(c1)N(CC(=O)NCC1CCCO1)C(=O)CO2 (stereo not given) | -0.5 | . | . | . | -0.4

A draw from above in order of heavy-atom count, lowest first.
SMILES | RecA splice inh | Arbovirus inh | Mtb growth | YopH inh | Mtb betalactam | others
Nc1ccc2nc(C(F)(F)F)[nH]c2c1 | 3.5 | -3.0 | -0.7% | . | -2.3
Cc1cccc(NC(=O)c2ccccc2O)c1C | -2.0 | 6.7 | 9.7% | -2.0 | 48.7 | Arbovirus inh repeat=1.5
CC1CCCN(Cc2ccc(OCc3ccccc3)cc2)C1 (stereo not given) | -0.1 | . | . | . | 4.4

Carrying on.
SMILES | RecA splice inh | Arbovirus inh | Mtb growth | YopH inh | Mtb betalactam | others
CCc1c(C)nc(SCC(=O)c2ccc(C)c(C)c2)[nH]c1=O | -0.3 | -7.2 | 4.4% | -40.3 | 5.1
O=C(O)CCCC(=O)Nc1cccc([N+](=O)[O-])c1 | -3.4 | 5.9 | 6.7% | . | -6.8
Cc1cc(NC(=O)CC#N)n(-c2nc3ccccc3[nH]2)n1 | 0.3 | . | . | . | -3.1
CC(C)CN(CC(C)C)C(=O)Cc1coc2ccc3ccccc3c12 | 24.0 | -19.5 | -4.1% | -7.0 | 2.2
CS(=O)c1nc(-c2ccc(Br)cc2)cc(-c2ccccc2)c1C#N (stereo not given) | 9.7 | -46.0 | 66.1% | -18.5 | 87.4
NC(=O)c1ccccc1N | 1.3 | . | -7.0% | . | 5.7
COc1ccc(-c2nc3c(n2O)CCCC3=O)cc1OC | -1.0 | 4.2 | 1.0% | -41.8 | 5.6
CCOC(=O)c1c(C)n(C)c2ccc(OC)c(NC(=O)CCN3CCSCC3)c12 | 0.4 | 3.5 | -2.2% | -8.8 | -6.1
COC(=O)C1C2C=CC3(CN(Cc4cccs4)C(=O)C13)O2 (stereo not given) | -1.1 | 10.1 | -12.7% | -38.1 | 2.6
CN1C(=O)CSc2ccc(NC(=O)Nc3ccccn3)cc21 | -2.0 | 5.0 | -4.7% | -11.4 | 0.3
Cc1nn(-c2ccccc2)c(N)c1C(O)(CC(=O)C(F)(F)F)C(F)(F)F (stereo not given) | -4.4 | -0.3 | -2.0% | -12.1 | -0.9
Nc1cccc(P(=O)(c2ccccc2)c2ccccc2)c1 | 0.5 | . | . | . | 6.5
FC(F)(F)c1ccnc(Sc2n[nH]c(C(F)(F)F)n2)c1 | . | . | -14.3% | . | 1.5
Nc1nc2nc(SCC(=O)N3CCCc4ccccc43)[nH]c2c(=O)[nH]1 | . | 0.8 | -1.1% | -23.8 | -13.0
Brc1ccc(Oc2ncc(CN3CCOCC3)s2)cc1 | -0.8 | 1.1 | -1.9% | 3.4 | -1.1
COC(=O)c1cc2ccccc2c(-c2c(O)ccc3ccccc23)c1O | 5.6 | -30.4 | 13.2% | -22.1 | 3.3
CN(CCc1ccccn1)S(=O)(=O)c1ccc(F)cc1 | 0.6 | -0.6 | 8.2% | -17.6 | -2.4
O=C1CC(Nc2ccccc2)C(=O)N1c1ccc(N2CCOCC2)cc1 (stereo not given) | . | 5.7 | 0.3% | 30.3 | 0.3
CCCCCCCOc1ccc(-c2ccc(C#N)cn2)cc1 | 5.2 | 8.7 | 55.3% | -16.5 | 85.3
O=C1NN(c2ccc(F)cc2)C(=O)/C1=C/c1cccs1 | -4.9 | -34.9 | 39.7% | . | 87.9
O=C(O)CCn1c(-c2ccccc2)cc2ccccc21 | -3.6 | 2.3 | 3.4% | . | -7.1
COCCc1ncc(CN2CCCC(C(=O)Nc3cccc(-c4cccc(C)c4)c3)C2)cn1 (stereo not given) | 1.5 | . | . | . | 6.6
COCCN(C(=S)Nc1cc(C)cc(C)c1)C(C)c1cccnc1 (stereo not given) | -1.9 | 2.2 | -2.7% | -17.4 | 1.0
CCCCN(C(=O)NC(=O)Nc1nc2ccc(OC)cc2s1)S(C)(=O)=O | -0.8 | 2.6 | -0.6% | -6.8 | -1.3 | Arbovirus inh repeat=-1.9
Cc1ccc(Nc2nc(N3CCOCC3)nc(N3CCOCC3)n2)cc1C | -1.6 | . | . | . | 2.9
COc1ccc(-c2nnc(-c3cccnc3)o2)cc1 | -1.6 | 8.4 | -3.6% | -23.6 | -5.2
Cc1ccc(CCNC(=O)C2CCN(S(=O)(=O)c3cccc4nsnc34)CC2)cc1 | . | 4.2 | 9.2% | 0.6 | -7.9
Cc1[nH]c(=O)[nH]c(=O)c1S(=O)(=O)N1CCCC1 | -1.0 | 3.6 | -2.7% | -49.6 | 33.3
CCn1c(=O)c(CCC(=O)NCC2CCCO2)c(C)c2c(C)nn(-c3ccccc3)c21 (stereo not given) | 1.5 | . | . | . | 13.6
CCOC(=O)c1c(/N=C/N(C)C)sc(C=O)c1-c1ccccc1 | -30.2 | 2.9 | 2.1% | . | -6.8
